Ecoli growth: E. coli growth inhibition, primary screen, OD600; 330,000 compounds, 0.21% hits; Escherichia coli growth, 23 h; stronger effect = lower value; OD600 absorbance (concentration not given with the values);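 active = OD600 absorbance below the run mean of sample wells minus 3.6 SD, in any replicate, cut at about 0.56 in these data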;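 also: stock transfer was 300 nL into about 60 µL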
UCH37 inh: inhibitors of human UCH37 deubiquitinase, primary screen, biochemical, Ub-AMC cleavage, fluorescence. Ubiquitin carboxyl-terminal hydrolase isozyme L5 (Homo sapiens), Q9Y5K5. purified proteasome/UCH37. inhibition, % (concentration not given with the values). 330,000 compounds, 0.33% hits;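 active = mean of two replicates above 20%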;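 also: 0% = compound-free wells with enzyme and 100% = wells lacking proteasome; stock transfer was 100 nL into about 20 µL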
Target sequence (Q9Y5K5 whole entry, looked up): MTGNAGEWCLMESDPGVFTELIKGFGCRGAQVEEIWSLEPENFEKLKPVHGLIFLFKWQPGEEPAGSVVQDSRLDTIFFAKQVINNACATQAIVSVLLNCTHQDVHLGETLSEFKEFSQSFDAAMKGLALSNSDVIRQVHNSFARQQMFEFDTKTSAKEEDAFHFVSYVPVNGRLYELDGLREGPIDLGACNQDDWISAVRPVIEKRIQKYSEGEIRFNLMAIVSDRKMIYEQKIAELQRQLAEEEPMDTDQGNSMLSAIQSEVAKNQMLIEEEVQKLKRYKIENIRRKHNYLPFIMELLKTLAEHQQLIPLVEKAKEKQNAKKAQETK
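system = Proteasome-associated human UCH37 deubiquitinase | amount = 0.15 nM proteasome as dispensed | medium = pH 7.4 Tris-HCl (50 mM) with ovalbumin, ATP-MgCl2, DTT | incubation = 30 min preincubation with enzyme, 25 min cleavage at room temperature | detection = AMC fluorescence 355/460 nm | read-out basis = percent inhibition | controls = no-proteasome and no-compound wells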
FGF22 binding: binders of human FGF22 protein, primary screen, FGF22 synaptogenesis inhibitor project, biophysical, thermal shift, single point. recombinant FGF22 thermal shift, SYPRO orange fluorescence; percent of sucrose octasulfate shift, DMSO zero. Fibroblast growth factor 22 (Homo sapiens), Q9HCT0. AID 651658, 2012. calls only at 9.99 µM. 340,000 compounds, 1.5% hits;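 active = melting point raised past a set limit in the mean and every replicate; three in four hits are not shown here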
Target sequence (Q9HCT0 whole entry, looked up): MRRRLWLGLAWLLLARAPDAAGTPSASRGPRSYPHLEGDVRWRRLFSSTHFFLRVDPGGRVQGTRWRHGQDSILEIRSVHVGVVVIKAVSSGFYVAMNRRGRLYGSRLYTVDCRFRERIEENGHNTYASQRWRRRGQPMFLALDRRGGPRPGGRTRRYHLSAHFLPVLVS
rRNA inh HTS: reduced GFP signal of wild-type E. coli, primary screen, bacterial rRNA inhibitor project, GFP/RFP fluorescence, OD600, single point. 350,000 compounds, 1.6% hits. GFP signal change (wild-type ribosome), % (no concentration beside the values). AID 720706, 2013. E. coli WT GFP vs humanized-ribosome RFP mutants, 24 h; stronger effect = lower value; DMSO median 0, no signal -100;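 active = significant combined selectivity score with lowered wild-type GFP, culture density cut under 30%, mutant RFP and density less affected; inactive = any of these conditions unmet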; also: one replicate is shown; some compounds called inactive have numbers as strong as hits
ALR H2O2 inh: inhibitors of human ALR sulfhydryl oxidase, primary screen, biochemical, H2O2 detection, HRP-luminol luminescence, single point | purified ALR, DTT oxidation | inhibition, % (no concentration beside the values) | 290,000 compounds, 3.8% hits | FAD-linked sulfhydryl oxidase ALR (Homo sapiens), P55789;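 active = mean and each replicate at 75% or more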;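 also: stock transfer was 7.5 nL into about 7.5 µL; 0% = neutral wells and 100% = wells with inactivated enzyme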
Target sequence (P55789 whole entry, looked up): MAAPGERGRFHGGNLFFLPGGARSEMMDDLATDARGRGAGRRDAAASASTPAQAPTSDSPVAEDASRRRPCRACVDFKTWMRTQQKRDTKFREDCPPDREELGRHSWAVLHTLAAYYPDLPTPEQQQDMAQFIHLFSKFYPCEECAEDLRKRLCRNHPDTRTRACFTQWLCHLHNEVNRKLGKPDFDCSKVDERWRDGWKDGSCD
rRNA inh HTS OD600: second read-out of rRNA inh HTS, no call of its own (marks repeat the call); OD600 change, %; measured here: OD600 growth;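 optical density of the mix in the first replicate; 0 = DMSO median and -100 = no signal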
rRNA inh HTS RFP: also measured in rRNA inh HTS; calls as there; RFP signal change, %; measured here: RFP humanized mutant strains;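 first replicate; 0 = DMSO median and -100 = no signal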
Numbers without * were called inactive; i = inactive; / = no result given; + = active, no number; & = joins results of further samples. Not all compounds are listed; rates above refer to the full screens.

[1] C[C@]12CCC(O)CC1CCC1C2CC[C@]2(C)C(C3=CC(=O)OC3)CC[C@]12O (some centres undefined)
[2] COc1ccc(OC)c(C(O)C(C)NC(C)(C)C)c1 (centres undefined)
[3] CCCNC(=O)N1C2CCC1C(C(=O)OC)=C(c1ccc(F)cc1OCc1ccccc1)C2 (centres undefined)
[4] COC(=O)C1=C(c2ccc(OCc3ccccc3)cc2)CC2CCC1N2C(=O)NCc1ccccc1 (centres undefined)
[5] COC(=O)C1=C(c2ccc(Cl)c(C(F)(F)F)c2)CC2CCC1N2C(=O)NCCO (centres undefined)
[6] COC(=O)C1=C(c2ccc(F)cc2OCc2ccccc2)CC2CCC1N2C(=O)NC1CC1 (centres undefined)
[7] COC(=O)C1=C(c2ccc3ccccc3c2)CC2CCC1N2C(=O)NCc1ccc(F)cc1 (centres undefined)
[8] COC(=O)C1=C(c2ccc(S(C)(=O)=O)cc2)CC2CCC1N2C(=O)N1CCOCC1 (centres undefined)

Assay by compound	1	2	3	4	5	6	7	8
Ecoli growth	0.7	0.7	0.69	0.76	0.7	0.7	0.66	0.7
UCH37 inh	/	/	/	/	/	/	/	/
FGF22 binding	/	/	/	/	/	/	/	/
rRNA inh HTS	/	/	/	/	/	/	/	/
rRNA inh HTS OD600	/	/	/	/	/	/	/	/
rRNA inh HTS RFP	/	/	/	/	/	/	/	/
ALR H2O2 inh	/	/	/	/	/	/	/	/

[9] COC(=O)C1=C(c2cccc(C#N)c2)CC2CCC1N2C(=O)N1CCc2cc(OC)c(OC)cc2C1 (centres undefined)
[10] COC(=O)C1=C(c2ccc3ccccc3c2)CC2CCC1N2C(=O)NC1CC1 (centres undefined)
[11] COC(=O)C1=C(c2c(C)noc2C)CC2CCC1N2C(=O)N1CCC(C)CC1 (centres undefined)
[12] COC(=O)C1=C(c2ccc(F)cc2F)CC2CCC1N2C(=O)NCCNC(C)=O (centres undefined)
[13] COc1ccc(C(=O)OC2CC3CCC(C2)N3C)cc1OC (centres undefined)
[14] CN1C(=O)COc2c(C(=O)NC3CN4CCC3CC4)cc(Cl)cc21 (centres undefined)
[15] C[C@@H]1C2C[C@@]34COC(=O)C3=CC=C[C@H]4[C@@]13C[C@H](c1ccoc1)O[C@@H]3O2
[16] COC(=O)[C@@H]1[C@@H](CO)[C@@H]2Cn3c(cccc3=O)[C@H]1N2Cc1nccs1

Assay by compound	9	10	11	12	13	14	15	16
Ecoli growth	0.68	0.71	0.68	0.69	0.72	/	/	/
UCH37 inh	/	/	/	/	/	0.5	0.3	/
FGF22 binding	/	/	/	/	/	/	/	i
rRNA inh HTS	/	/	/	/	/	/	/	-1
rRNA inh HTS OD600	/	/	/	/	/	/	/	2
rRNA inh HTS RFP	/	/	/	/	/	/	/	-4.3
ALR H2O2 inh	/	/	/	/	/	-1	11	/

[17] COC(=O)[C@@H]1[C@@H](CO)[C@@H]2Cn3c(ccc(-c4ccccc4F)c3=O)[C@H]1N2Cc1ccncc1
[18] N#Cc1ccc(-c2ccc([C@@H]3[C@H]4CN(C(=O)Cc5ccccc5)CCCCN4[C@H]3CO)cc2)cc1
[19] CCC12CCN(CC3(O)CC3)C(Cc3ccc(O)cc31)C2(C)C (centres undefined)
[20] O=C(O)[C@@H]1[C@@H](CO)[C@@H]2Cn3c(ccc(-c4ccccc4)c3=O)[C@H]1N2C(=O)C1CCCCC1
[21] CC=Cc1ccc2n(c1=O)C[C@@H]1[C@@H](CO)[C@H](C(=O)OC)[C@H]2N1CC1CCOCC1 (mixture of isomers)
[22] O=C1CNC[C@H]2[C@@H](c3ccc(Br)cc3)[C@H](CO)N12
[23] O=C(Cc1ccncc1)N1CCCCN2[C@@H](CO)[C@H](c3ccc(-c4ccncc4)cc3)[C@@H]2C1
[24] COC(=O)C[C@H]1CC[C@H]2NC[C@H](O)COC[C@@H]2O1

Assay by compound	17	18	19	20	21	22	23	24
Ecoli growth	/	/	/	/	/	/	/	/
UCH37 inh	/	/	/	/	/	/	/	/
FGF22 binding	i	i	i	i	i	i	i	i
rRNA inh HTS	0	-46	5	0	5	4	1	0
rRNA inh HTS OD600	-1	-70	0	4	0	16	3	8
rRNA inh HTS RFP	-2.2	1.3	2.1	-4.4	-3.3	0.9	-0.1	0.2
ALR H2O2 inh	/	/	/	/	/	/	/	/

[25] CC=Cc1ccc2n(c1=O)C[C@H]1[C@H](CO)[C@@H](C(=O)N(C)C)N[C@@H]21 (mixture of isomers)
[26] O=C(Cc1ccccn1)N1CCCCN2[C@@H](CO)[C@@H](c3ccc(Br)cc3)[C@@H]2C1
[27] O=C(Cc1ccccn1)N1CCCCN2[C@H](CO)[C@@H](c3ccc(-c4ccccc4F)cc3)[C@H]2C1
[28] COc1ccc(C#Cc2ccc([C@H]3[C@H]4CN(C(=O)Cc5cccnc5)CCCCN4[C@H]3CO)cc2)cc1
[29] O=C(Cc1ccccc1)N1CCCCN2[C@H](C1)[C@@H](c1ccc(C#Cc3ccccc3)cc1)[C@@H]2CO
[30] COc1ccc(-c2ccc([C@H]3[C@H]4CN(C(=O)Cc5ccncc5)CCCCN4[C@H]3CO)cc2)cc1
[31] COC(=O)[C@H]1[C@H](CO)[C@H]2Cn3c(ccc(-c4ccccc4)c3=O)[C@@H]1N2CCc1ccccc1
[32] O=C(Cc1ccccc1)N1CCCCN2[C@H](CO)[C@H](c3ccc(-c4ccccc4)cc3)[C@@H]2C1

Assay by compound	25	26	27	28	29	30	31	32
Ecoli growth	/	/	/	/	/	/	/	/
UCH37 inh	/	/	/	/	/	/	/	/
FGF22 binding	+	i	i	i	i	i	i	i
rRNA inh HTS	6	5	1	-41	-8	0	-4	-41
rRNA inh HTS OD600	19	8	-23	-61	-24	6	-11	-71
rRNA inh HTS RFP	-4.7	-1.4	0.2	3.7	7.3	-0.5	1.5	-1.6
ALR H2O2 inh	/	/	/	/	/	/	/	/

[33] COC(=O)[C@@H]1[C@@H](CO)[C@@H]2Cn3c(ccc(-c4ccc(OC)cc4)c3=O)[C@H]1N2C(=O)c1ccccc1F
[34] Cc1cccc(S(=O)(=O)N2[C@@H]3c4ccc(-c5cccc(F)c5)c(=O)n4C[C@H]2[C@H](CO)[C@H]3C(=O)O)c1
[35] O=C(Cc1ccccn1)N1CCCCN2[C@H](C1)[C@@H](c1ccc(C#Cc3ccccc3)cc1)[C@@H]2CO
[36] C[C@@H]1CNCCN1c1ccc(N2CC[C@H](O)C2)c(C#N)c1
[37] O=C(Cc1ccccc1)N1CCCCN2[C@H](C1)[C@@H](c1ccc(C#CC3(O)CCCC3)cc1)[C@@H]2CO
[38] O=C(NCCN1CCC2(CC1)C(=O)NCN2c1ccccc1)c1ccc(Cl)cc1
[39] C[C@H](CO)N1C[C@H](C)[C@@H](CN(C)C(=O)Oc2cccc3ccccc23)OCc2cnnn2CCCC1=O
[40] O=C(Cc1ccccn1)N1CCCCN2[C@@H](CO)[C@H](c3ccc(-c4ccc(F)cc4)cc3)[C@@H]2C1

Assay by compound	33	34	35	36	37	38	39	40
Ecoli growth	/	/	/	/	/	/	/	/
UCH37 inh	/	/	/	/	/	/	/	/
FGF22 binding	i	i	i	i	i	i	i	i
rRNA inh HTS	-3	-1	-59	25	1	11	-2	-5
rRNA inh HTS OD600	-10	13	-72	6	-17	3	1	-29
rRNA inh HTS RFP	1.7	-3.9	-4.4	-2.3	3.8	0.1	0.7	-2.1
ALR H2O2 inh	/	/	/	/	/	/	/	/

[41] COC(=O)[C@@H]1[C@@H](CO)[C@@H]2Cn3c(ccc(-c4ccccc4F)c3=O)[C@H]1N2CC1CCCC1
[42] CCCN1[C@@H]2Cn3c(ccc(-c4ccc(OC)cc4)c3=O)[C@H]1[C@@H](C(=O)OC)[C@@H]2CO
[43] COC(=O)[C@H]1[C@H](CO)[C@H]2Cn3c(ccc(-c4ccncc4)c3=O)[C@@H]1N2CCc1ccccc1
[44] O=C(Cc1ccccn1)N1CC2(C1)[C@H](c1ccccc1)[C@H](CO)N2Cc1ccccn1
[45] C/C=C/c1ccc(C2[C@@H]3CN(C(=O)C4CCC4)C[C@H]2N3)cc1 (some centres undefined)
[46] O=C(Cc1ccccc1)N1CCCCN2[C@H](CO)[C@H](c3ccc(C#CC4(O)CCCC4)cc3)[C@@H]2C1
[47] C/C=C/c1ccc([C@H]2[C@@H](CO)N3CCCCN(C(=O)Cc4cccnc4)C[C@H]23)cc1
[48] COc1ccc(C#Cc2ccc([C@@H]3[C@H](CO)N4CCCCN(C(=O)Cc5cccnc5)C[C@@H]34)cc2)cc1

Assay by compound	41	42	43	44	45	46	47	48
Ecoli growth	/	/	/	/	/	/	/	/
UCH37 inh	/	/	/	/	/	/	/	/
FGF22 binding	i	i	i	i	i	i	i	i
rRNA inh HTS	-7	0	-3	3	1&7	-2	-3	-60
rRNA inh HTS OD600	-8	-1	-14	8	-6&20	-6	-18	-76
rRNA inh HTS RFP	0.8	1.4	0.3	2.7	-0.3&-1.0	-2.4	-1.3	-15
ALR H2O2 inh	/	/	/	/	/	/	/	/

[49] O=C(Cc1ccncc1)N1CCCCN2[C@@H](CO)[C@H](c3ccc(C#CC4(O)CCCC4)cc3)[C@@H]2C1
[50] CC=Cc1ccc2n(c1=O)C[C@@H]1[C@@H](CO)[C@H](C(=O)OC)[C@H]2N1C(=O)CC (mixture of isomers)
[51] O=C(O)[C@H]1[C@H](CO)[C@H]2Cn3c(ccc(C4=CCCCC4)c3=O)[C@@H]1N2C(=O)Cc1ccccn1
[52] CC=Cc1ccc2n(c1=O)C[C@H]1[C@H](CO)[C@@H](C(=O)O)[C@@H]2N1S(=O)(=O)c1ccccc1F (mixture of isomers)
[53] O=C(Cc1cccnc1)N1CCCCN2[C@H](C1)[C@@H](c1ccc(C#CC3CCCC3)cc1)[C@@H]2CO
[54] c1cncc(-c2ccc(C3[C@H]4CNC[C@@H]3N4CC3CC3)cc2)c1 (some centres undefined)
[55] O=C(Cc1ccncc1)N1CCCCN2[C@H](CO)[C@@H](c3ccc(C#CC4(O)CCCC4)cc3)[C@@H]2C1
[56] C=CCc1ccc2c(c1)OCO2
[57] N#Cc1ccc(-c2ccc([C@@H]3[C@H](CO)N4CCCCN(C(=O)Cc5ccccc5)C[C@@H]34)cc2)cc1
[58] O=C(Cc1ccccn1)N1CCCCN2[C@H](CO)[C@H](c3ccc(-c4ccccc4)cc3)[C@H]2C1
[59] Cc1cc(N2CCNC[C@H]2C)ccc1N1CC[C@@H](O)C1

Assay by compound	49	50	51	52	53	54	55	56	57	58	59
Ecoli growth	/	/	/	/	/	/	/	/	/	/	/
UCH37 inh	/	/	/	/	/	/	/	/	/	/	/
FGF22 binding	i	i	i	i	i	i	i	i	i	i	i
rRNA inh HTS	9	2	2	0	-60	3	4	6	7	0	15
rRNA inh HTS OD600	18	6	7	6	-77	10	-7	5	-17	-3	27
rRNA inh HTS RFP	0.0	-1.5	-0.5	-1.3	-11	-4.0	5.0	-1.2	7.6	-1.3	3.3
ALR H2O2 inh	/	/	/	/	/	/	/	/	/	/	/

Record cards (already shown). Order of values: Ecoli growth, UCH37 inh, FGF22 binding, rRNA inh HTS, rRNA inh HTS OD600, rRNA inh HTS RFP, ALR H2O2 inh
Profile of O=C(NCCN1CCC2(CC1)C(=O)NCN2c1ccccc1)c1ccc(Cl)cc1 = /, /, i, 11, 3, 0.1, /
Profile of Cc1cccc(S(=O)(=O)N2[C@@H]3c4ccc(-c5cccc(F)c5)c(=O)n4C[C@H]2[C@H](CO)[C@H]3C(=O)O)c1 = /, /, i, -1, 13, -3.9, /
Profile of COC(=O)C[C@H]1CC[C@H]2NC[C@H](O)COC[C@@H]2O1 = /, /, i, 0, 8, 0.2, /
Profile of O=C(Cc1ccccn1)N1CCCCN2[C@@H](CO)[C@H](c3ccc(-c4ccc(F)cc4)cc3)[C@@H]2C1 = /, /, i, -5, -29, -2.1, /
Profile of c1cncc(-c2ccc(C3[C@H]4CNC[C@@H]3N4CC3CC3)cc2)c1 (some centres undefined) = /, /, i, 3, 10, -4.0, /

From PubChem
